# Compound activity (PubChem)
# Ab BasE inh = inhibitors of Acinetobacter baumannii siderophore enzyme BasE; purified BasE, fluorescence polarization binding displacement; inhibition, % (no concentration beside the values); actives 0.1% (n = 84,000); AID 485350;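 active = both replicates above 25% with normal brightness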;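 note: 0% = negative plate control signal and 100% = positive plate control signal; stock transfer was 100 nL into about 30 µL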
# LANA-nucl inh = inhibitors of KSHV LANA binding to nucleosomes. FITC-LANA1-23 / chicken nucleosome fluorescence polarization; stronger effect = lower value. z-score (concentration not given with the values). actives 0.3% (n = 51,000). AID 720717;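 active = both repeat wells score below -2 in polarization z-score versus plate sample wells, excluding overly bright wells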;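 note: 100 nL library stock added to about 30 µL; numbers are from one replicate; some results filed as inactive read as strong as hits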
#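 Assay system: purified chicken nucleosomes with FITC-labelled LANA N-terminal peptide (1-23) / Probe or stimulus: 50 nM FITC-LANA1-23 probe / Compound dosing: pin-transferred compound, 100 nL / Times: compound with peptide–nucleosome mix 10–45 min at room temperature / Technique: fluorescence polarization, 480 nm excitation, 535 nm parallel and perpendicular emission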
# The depositor's hits bear a star; x = no result given; & = joins results of further samples. This is a subset; the hit share may differ from the screen's.
# Value order: Ab BasE inh	LANA-nucl inh
> Cc1ccc2c(c1)c(-c1ccccc1)c(-c1ccccc1)n2CC(O)CNCc1ccco1 (stereo unspecified)
 : -2.0	x
> CCCNC(=O)c1nn(C)c2c1CCc1sccc1-2
 : 0.6	0.67
> O=C(COC(=O)C12CC3CC(CC(O)(C3)C1)C2)c1ccc[nH]1
 : -3.3	x
> Fc1ccc(-c2cn3ccccc3n2)cc1
 : -1.5	0.29
> O=C(CCN1C(=O)C2CC=CCC2C1=O)NCc1ccccc1 (stereo unspecified)
 : -2.2	0.72
> Cc1ccc(CN(C)c2nc(CN3CCOCC3)nc3sc4c(c23)CCC4)o1
 : 2.2	x
> O=CN1CCN(C(=O)CCc2ccccc2)CC1
 : -0.8	0.54
> FC(F)(F)c1[nH]ncc1-c1nnnn1-c1ccccc1
 : 1.9	-0.2
> O=C(CC1CCCCC1)Nc1ccc(N2CCOCC2)cc1N1CCOCC1
 : 1.4	x
> Cc1cccc2cc(CN(CCO)S(=O)(=O)c3ccc(Cl)cc3)c(=O)[nH]c12
 : -1.1	-0.44
> CC(Sc1ccc(Cl)cc1)C(=O)NCC1CCCO1 (stereo unspecified)
 : 1.6	-1.4
> CC1CC(=O)N(Cc2ccccc2F)c2ccccc2S1(=O)=O (stereo unspecified)
 : -1.3	1
> CCOC(=O)c1cc(C#N)c(=S)[nH]c1N
 : 0.3	x
> O=S(=O)(c1ccc(-c2cc(C(F)(F)F)on2)s1)N1CCC(O)(c2ccc(Cl)cc2)CC1
 : -2.8	2.1
> CC(NC(=O)c1cccnc1Cl)c1nc(-c2ccncc2)n[nH]1 (stereo unspecified)
 : 9.0	0.57

# Sorted by molar mass (highest first): three of the compounds above.
# Value order: Ab BasE inh	LANA-nucl inh
> O=C(CC1CCCCC1)Nc1ccc(N2CCOCC2)cc1N1CCOCC1
 : 1.4	x
> CC1CC(=O)N(Cc2ccccc2F)c2ccccc2S1(=O)=O (stereo unspecified)
 : -1.3	1
> CC(NC(=O)c1cccnc1Cl)c1nc(-c2ccncc2)n[nH]1 (stereo unspecified)
 : 9.0	0.57

# Remaining list, next part.
# Value order: Ab BasE inh	LANA-nucl inh
> CCN1C(=O)C(=Nc2ccc(S(=O)(=O)N3CCOCC3)cc2)c2ccccc21
 : 2.3	x
> COc1ccc(NNC(=O)C(O)(c2cccc(OC)c2)c2cccc(OC)c2)cc1
 : 4.6	-0.33
> CC(=O)Nc1ccc(S(=O)(=O)n2cc(C)nc2-c2ccccc2)cc1
 : x	-0.23
> O=C(OCc1cccc(C(F)(F)F)c1)C1COc2ccccc2O1 (stereo unspecified)
 : 2.6	x
> CSc1nnc2c3ccccc3n(Cc3ccccc3)c2n1
 : -0.8	0.24
> CC(SCC(=O)Nc1ccc(F)cc1)C(=O)O (stereo unspecified)
 : -1.3	x
> C=CCOC(=O)c1cc(-c2ccc(/C=C3/NC(=S)NC3=O)o2)ccc1Cl
 : -2.5	0.59
> CC1CCCCN1C(=O)Cc1ccc(Br)cc1 (stereo unspecified)
 : -1.1	-0.51
> O=C(OCc1cc(=O)oc2cc3c(cc12)CCC3)c1ccccn1
 : 0.7	x
> Cc1onc(-c2c(Cl)cccc2Cl)c1C(=O)NC(C)(C)CO
 : 2.2	x
> O=C(O)CSc1ncnc2c1nnn2Cc1ccccc1F
 : 1.6	0.047
> C1CCC(CN2CCOCC2)CC1
 : -1.1	0.014
> Cc1ccc(C(=O)CCCn2nnc(-c3ccncc3)n2)cc1C
 : -5.0	3.1
> Cc1ccc(CNc2ccc(N3CCOCC3)cc2)cc1
 : -1.2	0.03
> O=C(/C=C/c1ccc(Br)cc1)Nc1ccccn1
 : -2.0	0.38
> Fc1ccc(C(c2nnc(-c3ccccc3)o2)N2CCc3ccccc3C2)cc1 (stereo unspecified)
 : 0.3	-0.44
> CC(=O)N1CCN(CC(O)COc2ccc(Br)cc2)CC1 (stereo unspecified)
 : 1.4	-0.094
> CN(C)S(=O)(=O)c1ccc(C(=O)Nc2ccnn2C2CCCCC2)cc1
 : 0.0	x
> CC(C(O)c1ccc(O)cc1)N1CCC(Cc2ccccc2)CC1 (stereo unspecified)
 : 4.3	0.78&0.24&1.1
> Cc1ccc(Sc2ncccc2C2=N/C(=C\N(C)C)C(=O)O2)cc1
 : x	1.2
> C[C@@H]1CC[C@H]2C(C)(C)C3CC12CCC3(C)O (stereo partly specified)
 : -0.3	1.6
> Cc1nc2nc[nH]n2c(=O)c1NC(=O)NC1CCCC1
 : 1.8	0.17
> COc1ccc(-c2csc(-c3ccc(OC)cc3)n2)cc1
 : 2.4	x
> O=C(O)Cc1ccc(O)cc1
 : 3.4	x
> O=C1CCCC(O)=C1N=Nc1ccc2ncsc2c1
 : 2.4	x
> CCC(CC)C(=O)n1c(=O)oc2ccc(C)cc21
 : -1.4	0.55
> O=C(COC(=O)c1ccc(-c2nc3ccccc3s2)s1)NC1CC1
 : 0.2	x
> COc1ccccc1NS(=O)(=O)c1ccc(N)cc1
 : 0.8	x
> CC(=O)Nc1ccc(S(=O)(=O)Nc2ccc3c(c2)OC(C)(C)O3)cc1
 : 0.4	0.26
> CS(=O)(=O)Nc1ccccn1
 : -0.7	x

# Profiles, looked up by structure. Order of values: Ab BasE inh, LANA-nucl inh
# O=C(O)Cc1ccc(O)cc1 in the list: 3.4, x
# C[C@@H]1CC[C@H]2C(C)(C)C3CC12CCC3(C)O (stereo partly specified) in the list: -0.3, 1.6
# CN(C)S(=O)(=O)c1ccc(C(=O)Nc2ccnn2C2CCCCC2)cc1 in the list: 0.0, x
# Fc1ccc(C(c2nnc(-c3ccccc3)o2)N2CCc3ccccc3C2)cc1 (stereo unspecified) in the list: 0.3, -0.44
# O=C(COC(=O)c1ccc(-c2nc3ccccc3s2)s1)NC1CC1 in the list: 0.2, x

# Remaining list, next part
# Value order: Ab BasE inh	LANA-nucl inh
> CC12CCC3c4ccc(OC(=O)c5ccccc5)cc4CCC3C1CCC2O (stereo unspecified)
 : x	-0.69
> O=P(O)(CCc1ccccc1)CN1CCCCC1
 : 0.1	-1.4
> O=C(O)CN(CC(=O)O)c1ccc2cccc(O)c2n1
 : 13	1.1
> CC(C)(C(=O)Oc1ccccc1)S(=O)(=O)c1ccc(C(F)(F)F)cn1
 : -1.4	x
> CC(C)n1ncc2c(C(=O)N3CCc4ccccc43)cc(C3CC3)nc21
 : 0.4	x
> CCN1/C(=C/C=C2\SC(=S)N(C)C2=O)Oc2ccccc21
 : -2.0	-0.56
> COc1ccc(CCCc2nnc(SCC(=O)Nc3cc(F)ccc3C)o2)cc1C
 : 3.4	x
> CCN1C(=O)/C(=c2\sc3nc(-c4ccccc4C)nn3c2=O)c2ccccc21
 : -0.4	2.9
> CC(=O)N/N=C/c1c[nH]c2ccc(Br)cc12
 : 0.1	x
> Cc1cccc(OCc2nnc(SCC(=O)N3CC(=O)Nc4ccccc43)o2)c1
 : -2.4	x
> C[C@]12CCC3c4ccc(O)cc4CCC3C1CC[C@@H]2OC(=O)CCC1CCCC1 (stereo partly specified)
 : -2.1	0.24&0.51
> COc1ccc(-c2onc(C)c2C)cc1S(=O)(=O)N(C)CC1COc2ccccc2O1 (stereo unspecified)
 : -0.1	x
> O=C(O)/C=C/c1ccc2c(c1)CCC2
 : x	0.66
> CCCCn1c(N)c(N2CCC(C(N)=O)CC2)c(=O)[nH]c1=O
 : -0.7	x
> Oc1ccc(/C=C/c2ccncc2)cc1
 : -0.2	x
> C=CCNC(=O)CSc1nnc(C(CC)N(C)C)n1C1CCCCC1 (stereo unspecified)
 : 2.9	x
> CCc1nc(-c2ccc(OC)cc2)cc2cc(OC)c(OC)cc12
 : 2.0	x
> CCN(CC)C(=O)CSc1nnc(Cc2ccccc2)n1CC
 : 1.5	-0.5
> O=C1C=C(NNc2ccccc2)CCC1
 : -0.6	0.63
> CCCCS(=O)(=O)NC1=NCN(CCOC(=O)c2ccccc2)CN1
 : 2.6	-0.045
> CSc1n[nH]c(=O)n1-c1cccc(C(F)(F)F)c1
 : 0.5	-0.16
> CCN(CC(=O)Nc1ccc2c(c1)OCCO2)C(=O)CC1CCCC1
 : -3.7	x
> Cc1cc(C)c(C)c(Cn2c(CO)nc3ccccc32)c1C
 : 1.9	-0.51
> CNc1nc2c(C)cccn2c(=O)c1C=Nc1ccc(OC)cc1
 : -0.1	-0.29
> N#Cc1ccc(COC(=O)CN2C(=O)CCOc3ccccc32)cc1
 : -0.6	x
> CCCCOC(=O)c1cc(=O)[nH]c(=O)[nH]1
 : 0.1	0.79
> CCOC(=O)c1ccccc1NC(=O)Cn1c(=O)n(Cc2nc(C)no2)c(=O)c2cc3c(cc21)OCO3
 : 0.0	x
> O=S(=O)(c1ccccc1)c1cscc1NC(=S)Nc1ccccc1Cl
 : -3.7	x
> CCOC(=O)c1c(C)[nH]c(NC(=O)Nc2ccc(N(C)C)cc2)c1C
 : -0.1	-0.18
> CCOC(=O)C1=C(C)Nc2c(C#N)c(N3CCOCC3)nn2C1c1ccc(OC)cc1 (stereo unspecified)
 : -0.5	x
> CCOC(=O)c1oc2ccc3c(C)cc(=O)oc3c2c1-c1ccccc1
 : 0.7	-1.4
> CC(C)(C)c1coc2cc3oc(=O)ccc3cc12
 : -2.2	2.9
> O=S1(=O)N=C(N2CCCC(C(F)(F)F)C2)c2ccccc21 (stereo unspecified)
 : -1.1	x
> CC(NC(=O)/C=C/c1ccccc1)C1COc2ccccc2O1 (stereo unspecified)
 : -0.4	-0.9
> O=C(CCS(=O)(=O)c1cccc2nsnc12)NCc1cccs1
 : 1.6	0.11
> CC(C)COC(=O)N1CCN(S(=O)(=O)c2ccccc2C#N)CC1
 : 3.8	x
> COC(=O)c1ccc(C(=O)OCCCc2nc3ccc(N)cc3[nH]2)cc1
 : 3.1	-0.25
> COC(=O)C1=C(O)C2(C(=O)O)CC(C(=O)OC)=C(O)C(C(=O)O)(C1)C2
 : -1.5	x
> O=C(NCc1ccccn1)c1ccccc1
 : 2.8	x
> O=C(Nc1ccc(OCc2ccccc2)cc1)N1CCN(c2ccccn2)CC1
 : -3.6	x
> O=C(CC1Sc2ccccc2NC1=O)OCn1nnc2ccccc2c1=O (stereo unspecified)
 : 2.6	x
> Cc1cccc(NC(=O)CNC(=O)c2ccc(S(=O)(=O)NCc3ccco3)cc2)c1C
 : -1.4	x
> COC(=O)c1sc(S(=O)(=O)NC23CC4CC(CC(C4)C2)C3)c(C(=O)OC)c1C
 : -3.9	x
> CN(C)S(=O)(=O)c1cccc(C(=O)OCC(=O)N2CCCCC2)c1
 : -0.6	x
> Cc1noc(C)c1CSCC(=O)NC1CCCc2ccccc21 (stereo unspecified)
 : 2.7	x
> O=C(NCC(=O)N1CCN(S(=O)(=O)c2ccccc2)CC1)c1ccc(Cl)cc1
 : -2.7	x
> CCN(Cc1ccccc1)C(=O)c1ccc(C#N)cc1
 : 1.4	x
> O=C(NC(=S)N1CCOCC1)C12CC3CC(CC(C3)C1)C2
 : -1.1	x
> CCN(CC)C(=O)CSc1nnc(-c2ccco2)n1CCCOC
 : 1.1	-0.4
> CCN(CC)c1ccc(-c2nnc(SCC(=O)N3CCNC3=O)n2C)cc1
 : -0.5	x
> Cc1ccc2nc3c(cc(C(N)=O)c(=N)n3Cc3cccnc3)c(=O)n2c1
 : 3.8	x
> COc1ccc(N(C(=O)/C=C/c2ccc(OC)c(OC)c2)C2=CC3CCC(C2)N3C)cc1 (stereo unspecified)
 : -0.1	x
> Cn1cc(C=C2C(=O)OC3(CCCCC3)OC2=O)c2ccccc21
 : 2.7	x
> CC(=O)Nc1cc(C(C)(C)C)nn1C
 : 0.4	-1.2
> Cc1c(C)c(C)c(C(=O)C2CCN(C(=O)Nc3ccc(Cl)cc3Cl)CC2)c(C)c1C
 : x	0.52
> CN(C)c1cccc(C(=O)N2CC3(C)CC2CC(C)(C)C3)c1 (stereo unspecified)
 : 0.3	x
> CCOC(=O)c1cc2c(ccn2-c2ccc(F)cc2)n1CC(=O)NC1CCCCC1
 : 0.2	-1.2
> CNC(=O)COc1ncnc2sccc12
 : 0.4	x
> COc1ccc(S(=O)(=O)N(CC(=O)O)C2CCCCC2)cc1OC
 : 0.9	x
> CN(C)c1cccc(N=Cc2c(O)n(Cc3ccc(F)cc3)c(=O)[nH]c2=O)c1
 : 0.2	0.73

# Later entries:
# Value order: Ab BasE inh	LANA-nucl inh
> O=C(NC1CC1)c1c[nH]c2ccc(S(=O)(=O)Nc3cccc(C(F)(F)F)c3)cc2c1=O
 : -7.0	2
> Cc1c(N)c(=O)n(-c2ccccc2)n1C
 : -0.5&-1.1	0.19&0.18
> COc1cccc(OC)c1C(=O)N1CCN(c2ncnc3scc(-c4ccccc4)c23)CC1
 : -4.2	x
> N=c1c2c(-c3ccccc3)c(-c3ccccc3)n(Cc3ccco3)c2ncn1CCCN1CCOCC1
 : 1.9	-0.22
> COc1ccc2c(c1)NC1(O)c3ccccc3C(=O)C21O (stereo unspecified)
 : -0.4	x
> CN(Cc1ccccc1)S(=O)(=O)c1ccc(C(=O)Nc2nc3ccc4ccccc4c3s2)cc1
 : 1.9	x
> Cc1ccccc1SCC(=O)NC1CCOC1=O (stereo unspecified)
 : 1.3	x
> OCCN/N=C/c1cc(Cl)cc(Cl)c1O
 : 2.4	-0.28
> Cc1ccc2nc(-c3ccc(NC(=O)C4CCC4)cc3)sc2c1
 : 1.3	x
> Nc1nnc(CCS(=O)(=O)c2ccc3ccccc3c2)s1
 : 0.9	-1
> O=C(CSc1nc(-c2ccco2)cc(C(F)(F)F)n1)N1CCCC1
 : 1.6	0.24
> CC(=O)N1N=C(c2ccc(C)cc2)CC1c1cc2cc3c(cc2nc1Cl)OCO3 (stereo unspecified)
 : 1.0	x
> Cc1nn(Cc2ccccc2)c(C)c1CC(=O)O
 : -0.4	0.02
> CCOC(=O)c1cn2nc(Oc3ccc(C(=O)OC)cc3)ccc2n1
 : -1.9	0.45
> CS(=O)(=O)N(CC(=O)N1CCOCC1)c1cccc2ccccc12
 : 0.3	0.82
